BJeLR viability: BJeLR cell viability loss; 300,000 tested, 0.17% active; inhibition, % (test concentration not listed); BJeLR (HRASV12) viability, CellTiter-Glo ATP luminescence, 48 h; reference of the scale not given here;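 active = replicate mean above 50%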;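 note: 50 nL library stock added to about 25 µL; numbers are from one replicate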
Active calls of the source: *.

item | smiles | BJeLR viability
1 | Cc1nc(C(=O)NC2CCCCC2)sc1C1(C)CC(c2cccnc2)=NO1 (configuration not stated) | -2
2 | COc1cc(/C=C2\C(=N)N3N=C(S(C)(=O)=O)SC3=NC2=O)ccc1OS(=O)(=O)c1ccccc1 | -6
3 | NC(=O)c1sc(-c2ccsc2)cc1NS(=O)(=O)c1ccc(C(F)(F)F)cc1 | 3
4 | CCCCNC(=O)C(c1ccc(OCC(=O)OC)c(C(=O)OC)c1)N(CCc1c[nH]c2ccccc12)C(=O)CCCCCN1C(=O)NC(c2ccc(-c3ccccc3)cc2)C(C(=O)OCc2ccccc2)=C1C (configuration not stated) | 2
5 | C#CCOCCOCCOCCNc1nc(N2CCN(C(=O)[C@H](CCC(=O)O)n3cc(C(N)Cc4ccc(O)cc4)nn3)CC2)nc(N2CCN(C(=O)[C@H](CCC(=O)O)n3cc(C(N)CC(C)C)nn3)CC2)n1 (some centres not stated) | -14
6 | Nc1c(C(=O)N/N=C/c2ccc([N+](=O)[O-])cc2)sc2nnc(-c3ccccc3)c(-c3ccccc3)c12 | -4
7 | Cc1ccc2cc(C)c3nnc(SCC(=O)N4CCCc5ccccc54)n3c2c1C | 4
8 | O=C(NN1C(=O)/C(=C/c2cc([N+](=O)[O-])ccc2O)SC1=S)c1ccccc1O | -2
9 | Cc1ccc(C)c(CN2C(=O)C3CCCN3c3ccc(S(=O)(=O)N4CCOCC4)cc32)c1 (configuration not stated) | 2
10 | Cc1cccc(NC(=O)Cn2c([N+](=O)[O-])cnc2C)c1C | -19
11 | O=C(CSc1nnc(-c2ccc(Cl)cc2)n1-c1ccc(Cl)cc1)N/N=C/c1ccccc1C(=O)O | 0
12 | COCCCN1C(=O)C(=O)/C(=C(/O)c2ccc(OC(C)C)cc2)C1c1ccc(O)c(OC)c1 (configuration not stated) | -9
13 | COc1ccccc1C(=O)NCC(=O)NNc1ncnc(N)c1[N+](=O)[O-] | 3
14 | COc1cccc(N2CCCn3c2nc2c3c(=O)n(CCN3CCOCC3)c(=O)n2C)c1 | 4
15 | Cc1nc2cc(N3CCCCC3)c(NC(=O)c3ccncc3)cc2c(=O)n1Cc1ccc(Cl)cc1 | -3
16 | COC(C/C=C\C(=O)[C@@H](C)OCc1ccccc1)OC | 4
17 | Cc1ccc(C(=O)NC(C)c2nc3ccccc3n2CC(=O)Nc2c(C)cc(C)cc2C)cc1 (configuration not stated) | 2
18 | CCc1cc2c(nc1CC)CCN(CC/C(C)=N/OC[C@H]1O[C@H](c3ccccc3)C=C[C@@H]1Oc1ccc(OC)cc1)C2 | -10
19 | Oc1ccc(/C=N/Nc2ccc(C(F)(F)F)cn2)cc1O | -2
20 | COc1cc(/C=N/n2cnc3c(sc4nc(C)cc(C)c43)c2=O)ccc1O | 8
21 | Cc1sc2ncnc(Sc3nc4ccccc4s3)c2c1C | 4
22 | Cc1ccc(C2=NCN(c3ccc(C(=O)O)cc3)C(=S)N2)cc1 | 3
23 | CC(C)[C@H](NC(=O)[C@H](CC(=O)O)NC(=O)[C@H](CCCCN)NC(=O)[C@@H](N)CCCN=C(N)N)C(=O)N[C@@H](Cc1ccc(O)cc1)C(=O)O | -16
24 | CCOC(=O)c1cc(-c2ccccc2)sc1NC(=O)c1ccc(OC)cc1 | 7
25 | COc1ccc(N/C(=C(/C(Cl)=C(Cl)Cl)[N+](=O)[O-])n2nnc3ccccc32)cc1OC | 5
26 | CC1(OC(=O)c2ccco2)C(=O)C=C2C=C(c3ccc(C#N)cc3)OC=C2C1=O (configuration not stated) | 2
27 | COc1cc([N+](=O)[O-])cc(/C=N/NC(=O)CSc2nnc(-c3ccccc3)n2C)c1O | -10
28 | CCc1ccccc1NC(=O)CSc1nc(-c2ccccc2)nn1C(=O)c1cccc([N+](=O)[O-])c1 | -13
29 | C(=C1/CCCC2=C1Nc1ncnn1C2c1ccccc1)/c1ccccc1 (configuration not stated) | -2
30 | COc1cccc2[nH]c3c(N4CCN(Cc5ccc6c(c5)OCO6)CC4)ncnc3c12 | 10
31 | CC(=O)Nc1ccc(Cc2ccc3[nH]c(=O)cc(C)c3c2)cc1 | -7
32 | CCC(=O)NNC(=O)CCC(=O)Nc1ccccc1 | 4
33 | O=S(=O)(/N=C/c1c(O)ccc2ccccc12)c1cccs1 | 0
34 | O=C1CCCC(=O)N1c1ccc(N2CCN(c3ccc([N+](=O)[O-])cc3)CC2)c([N+](=O)[O-])c1 | 6
35 | Clc1ccccc1CSc1nncn1-c1cccnc1 | 6
36 | CCN1C(=NCc2cc(OC)c(OC)c(OC)c2)N[C@@H](c2ccccc2)[C@H](C(=O)OC)[C@H]1C | -1
37 | O=S(=O)(c1ccc(F)cc1)N1CCCc2ccccc21 | -6
38 | CNC(=O)/C(=N\O)c1ccccc1 | 7
39 | O=C(Nc1ccc(Cl)cc1)[C@@H]1[C@@H]2C(=O)N(c3ccc(Cl)cc3Cl)C(=O)[C@@H]2[C@H]2C=CC=NN21 | -4
40 | O=S(=O)(O)Oc1c[nH]c2ccccc12 | -7

Reformatted field by field: part of the list above.
28) CCc1ccccc1NC(=O)CSc1nc(-c2ccccc2)nn1C(=O)c1cccc([N+](=O)[O-])c1
  BJeLR viability = -13

37) O=S(=O)(c1ccc(F)cc1)N1CCCc2ccccc21
  BJeLR viability = -6

(listing goes on)
item | smiles | BJeLR viability
41 | O=C(CN1N=C(c2ccc(Cl)cc2)CCC1=O)NCc1cccs1 | -16
42 | CCOc1ccc(C2C=C(c3ccc(C)cc3)Nc3ncnn32)cc1 (configuration not stated) | -19
43 | COC(=O)c1ccc2c(c1)N(Cc1nc(-c3cccc(C)c3)oc1C)C(=O)C1CCCN21 (configuration not stated) | 2
44 | Cc1ccc(/C=N/NC(=O)c2n[nH]c3c2CCCC3)cc1 | 60*
45 | COc1cc(/C=C(\C#N)C(=O)Nc2cccc3ncccc23)ccc1O | 5
46 | O=C(N/N=C/c1sc(N2CCOCC2)nc1-c1ccccc1)c1ccccc1F | -4
47 | Cc1occc1C(=O)N=Nc1c(O)[nH]c2ccc(Br)cc12 | 5
48 | Cc1ccc(-n2nc(C)c3c(=O)[nH]c(C(F)(F)F)nc32)cc1 | -8
49 | Cc1ccccc1OCC(=O)NCC(=O)N/N=C/c1cccc([N+](=O)[O-])c1 | 3
50 | COC(=O)C1=C(C(=O)OC)[C@@H]2N(C)c3ccc(OC)cc3[C@@]23C[C@@H](C(=O)OC)N(C(=O)NCCBr)C3=N1 | 1
51 | Cc1sc(/N=C/c2c(O)ccc3ccccc23)c(C#N)c1C | -1
52 | CCN(CC)c1ccc2cc(/C(N)=N/NC(=O)c3cccs3)c(=O)oc2c1 | 5
53 | OC[C@H]1O[C@@H](Oc2cc(O)cc(/C=C/c3ccc(O)cc3)c2)[C@H](O)[C@@H](O)[C@@H]1O | 0
54 | NS(=O)(=O)c1ccc(-c2ccc(C=C3C(=O)NC(=S)NC3=O)o2)cc1 | 10
55 | Cc1ccc(OCC(=O)n2cnnc2N)c(C)c1 | -2
56 | C#CCOCCOCCOCCNc1nc(N2CCN(C(=O)[C@H]([C@@H](C)CC)n3cc([C@@H](N)Cc4ccc(O)cc4)nn3)CC2)nc(N2CCN(C(=O)[C@H](CCCCN)n3cc([C@@H](N)CO)nn3)CC2)n1 | 2
57 | COc1ccccc1NC(=O)C1C2C=CC(O2)C1C(=O)O (configuration not stated) | 0
58 | C#CCOCCOCCOCCNc1nc(N2CCN(C(=O)[C@H](CCC(=O)O)n3cc(C(N)Cc4ccc(O)cc4)nn3)CC2)nc(N2CCN(C(=O)[C@H](Cc3ccc(O)cc3)n3cc(C(N)CC(C)C)nn3)CC2)n1 (some centres not stated) | 2
59 | C/C(CCN1CCc2nc(-c3ccccc3)c(-c3ccccc3)cc2C1)=N\OC[C@@H](C)[C@H](OCc1ccccc1)C(C)C | 8
60 | O=C1N[C@@H](Cc2cn(S(=O)(=O)c3ccc(F)cc3)c3ccccc23)C(=O)N[C@H]1Cc1ccccc1 | 10
61 | CN1CCN(C(c2ccc(C(F)(F)F)cc2)c2cc(Cl)c3cccnc3c2O)CC1 (configuration not stated) | 19
62 | O=C(Nc1nc2ccc(SC(F)F)cc2s1)c1ccc2c(c1)S(=O)(=O)c1ccccc1C2=O | 5
63 | O=C1CCCCC1C(O)c1ccc(Cl)cc1 (configuration not stated) | -1
64 | COC(=O)c1c(C)[nH]c(C(=O)N2CCN(c3ccc(OC)cc3)CC2)c1C | 6
65 | CCS(=O)(=O)NCc1ccc2[nH]c3c(c2c1)CCCC3 | 5
66 | C(=N\Nc1nc(N2CCOCC2)nc(N2CCOCC2)n1)/c1ccco1 | 6
67 | O=C1CN(CC(=O)N2CCOCC2)c2ccccc2O1 | 8
68 | Clc1ccc(C2[C@H]3CN(Cc4ccc(-c5ccccc5)cc4)[C@H](c4ccccc4)C34CC2(c2cccnc2)C4)cn1 (some centres not stated) | 4
69 | COC(=O)c1ccccc1OCCCOc1ccc(C)cc1OC | -11
70 | CC(COc1ccccc1Cc1ccccc1)N1CCCCC1 (configuration not stated) | -2
71 | CCCCn1c(=N)n(CC(=O)c2ccc([N+](=O)[O-])cc2)c2ccccc21 | -10
72 | O=C1C(Cc2ccccc2)Nc2ncnc(N3CCc4ccccc4C3)c2N1Cc1ccc(Br)cc1 (configuration not stated) | 4
73 | Cc1nc(C)c(/C(O)=C/c2nc3ccc([N+](=O)[O-])cc3oc2=O)o1 | -2
74 | COC(=O)c1ccc(C23CC4(C2)[C@H](CN(Cc2cccnc2)[C@@H]4c2ccccc2)C3c2ccc(C(F)(F)F)cc2)cc1 (some centres not stated) | 7
75 | O=C1C([N+](=O)[O-])=C(O)c2cccc3cccc1c23 | 0
76 | CC(=O)c1ccc(NC(=S)N2C(C)CCCC2C)cc1 (configuration not stated) | 1
77 | O=C(/C=C/c1ccc2c(c1)OCO2)Nc1nc(-c2ccc(F)cc2)cs1 | 7
78 | CCc1ccc2nc3sc(C(=O)N4CCc5ccccc54)c(N)c3cc2c1 | 0
79 | CC(C)c1cc(-c2cc(C(=O)Nc3ccccc3)on2)nc(NCC2CC2)n1 | -6
80 | COC(=O)CCC(=O)OC1(C)C(=O)C2=CN(CC(C)C)C(c3ccc(OC)cc3)=CC2=C(Br)C1=O (configuration not stated) | 6
81 | CN1CCc2c(sc(NC(=O)c3cc4cc([N+](=O)[O-])ccc4s3)c2C(N)=O)C1 | -10
82 | COc1cc([N+](=O)[O-])ccc1-c1ccc(/C=N/NC(=O)c2ccccc2O)o1 | 4
83 | COC(=O)CCC(=O)OC1(C)C(=O)C2=CN(C(CO)CO)C(c3ccc(OC)cc3)=CC2=C(Br)C1=O (configuration not stated) | 1
84 | [O-][n+]1c2c(nc3c1-c1ccccc1C3O)CCCC2 (configuration not stated) | 0
85 | C/C(=N/O)c1ccc(N2C(=O)C3C4C=CC(C3C2=O)C2C3C(=O)N(c5ccc(/C(C)=N/O)cc5)C(=O)C3C42)cc1 (configuration not stated) | -4
86 | CC(=O)N[C@@H](C)c1nc2ccccc2n1CCNC(=O)[C@H]1CCCN1c1nc(CN2CCCCC2)cs1 | -1
87 | COCCN1C(=O)N[C@H](c2cccc(C(F)(F)F)c2)C(C(=O)OC)=C1C | 16
88 | COc1ccc(CNS(=O)(=O)c2ccccc2Br)cc1 | -2
89 | CCOC(=O)C(NC(C)=O)(N1CCOCC1)C(F)(F)F (configuration not stated) | 3
90 | C/C(CC(=O)Nc1cc(C)ccn1)=N\NC(=O)COc1cccc(C)c1 | 8
91 | CC(C)c1nc(CN(C)C(=O)N[C@H](C(=O)N[C@@H](Cc2ccccc2)C[C@H](O)[C@H](Cc2ccccc2)NC(=O)OCc2cncs2)C(C)C)cs1 | 0
92 | COC(=O)CCCC1=CC2=CC(=O)C(C)(OC(=O)c3cnc4ccccc4n3)C(=O)C2=CO1 (configuration not stated) | 8
93 | C=C1C(=O)O[C@H]2C[C@@H](C)[C@@H]3C=CC(=O)[C@@]3(C)C[C@H]12 | 27
94 | COC(=O)C1=C(C)N(Cc2ccco2)C(=O)N[C@H]1c1ccc(Br)cc1 | 6
95 | O=S(=O)(c1ccccc1)N1N=C(c2ccccc2)CC1c1ccco1 (configuration not stated) | -4
96 | Fc1ccc(C[n+]2c(-c3ccccc3)cc(-c3ccccc3)cc2-c2ccccc2)cc1 | 1
97 | CCCNC(=O)OC[C@H]1O[C@H](CCO/N=C/[C@@H](OC)[C@H](C)/C=C/CC(=O)OC)C=C[C@@H]1Oc1ccc(OC)cc1 | -1
98 | Cc1ccc(C)n1C(Cc1ccccc1)C(=O)O (configuration not stated) | 5
99 | O=C(Nc1ccc(C2=NCCN2)cc1)c1ccc(Cl)c(C(=O)Nc2ccc(C3=NCCN3)cc2)c1 | -6
100 | COC(=O)c1ccc(C23CC4(C2)[C@H](CN(Cc2ccc(C(F)(F)F)cc2)[C@@H]4c2ccccc2)C3c2ccc(C(F)(F)F)cc2)cc1 (some centres not stated) | 6
101 | Cc1c(C(=O)N2CCN(c3ccccc3)CC2)sc2ncnc(N3CCC(C)CC3)c12 | -11
102 | COc1cccc2cc(C(N)=O)/c(=N/NC(=O)COc3ccc(Cl)cc3)oc12 | 14
103 | O=C(O[C@H]1[C@H](Oc2ccccc2COC(=O)C2(O)C=CCCC2=O)O[C@H](CO)[C@@H](O)[C@@H]1O)c1ccccc1 (some centres not stated) | 10

Among those listed so far, these have a thiophene ring, fused or not.
item | smiles | BJeLR viability
3 | NC(=O)c1sc(-c2ccsc2)cc1NS(=O)(=O)c1ccc(C(F)(F)F)cc1 | 3
6 | Nc1c(C(=O)N/N=C/c2ccc([N+](=O)[O-])cc2)sc2nnc(-c3ccccc3)c(-c3ccccc3)c12 | -4
20 | COc1cc(/C=N/n2cnc3c(sc4nc(C)cc(C)c43)c2=O)ccc1O | 8
21 | Cc1sc2ncnc(Sc3nc4ccccc4s3)c2c1C | 4
24 | CCOC(=O)c1cc(-c2ccccc2)sc1NC(=O)c1ccc(OC)cc1 | 7
33 | O=S(=O)(/N=C/c1c(O)ccc2ccccc12)c1cccs1 | 0
41 | O=C(CN1N=C(c2ccc(Cl)cc2)CCC1=O)NCc1cccs1 | -16
51 | Cc1sc(/N=C/c2c(O)ccc3ccccc23)c(C#N)c1C | -1
52 | CCN(CC)c1ccc2cc(/C(N)=N/NC(=O)c3cccs3)c(=O)oc2c1 | 5
78 | CCc1ccc2nc3sc(C(=O)N4CCc5ccccc54)c(N)c3cc2c1 | 0
81 | CN1CCc2c(sc(NC(=O)c3cc4cc([N+](=O)[O-])ccc4s3)c2C(N)=O)C1 | -10
101 | Cc1c(C(=O)N2CCN(c3ccccc3)CC2)sc2ncnc(N3CCC(C)CC3)c12 | -11

Not all compounds are listed; count on the stated rates, not on these rows.
